# LANA-H2A inh – blocks KSHV LANA binding to histone H2A/H2B | Q9QR71 | cell-free LANA-H2A/H2B peptide, fluorescence polarization | inhibition, % (concentration not given with the values) | 320,000 compounds, 0.6% hits | AID 2629; in the data active = inhibition mostly above about 10%, no sharp cut-off; inactive = mostly below about 6.7%;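 also: stock transfer was 7.5 nL into about 10 µL; 0% = median of vehicle wells and 100% = median of positive control wells; one replicate is shown; the record names a cut of 25% in any replicate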
# Target sequence (Q9QR71 whole entry, looked up): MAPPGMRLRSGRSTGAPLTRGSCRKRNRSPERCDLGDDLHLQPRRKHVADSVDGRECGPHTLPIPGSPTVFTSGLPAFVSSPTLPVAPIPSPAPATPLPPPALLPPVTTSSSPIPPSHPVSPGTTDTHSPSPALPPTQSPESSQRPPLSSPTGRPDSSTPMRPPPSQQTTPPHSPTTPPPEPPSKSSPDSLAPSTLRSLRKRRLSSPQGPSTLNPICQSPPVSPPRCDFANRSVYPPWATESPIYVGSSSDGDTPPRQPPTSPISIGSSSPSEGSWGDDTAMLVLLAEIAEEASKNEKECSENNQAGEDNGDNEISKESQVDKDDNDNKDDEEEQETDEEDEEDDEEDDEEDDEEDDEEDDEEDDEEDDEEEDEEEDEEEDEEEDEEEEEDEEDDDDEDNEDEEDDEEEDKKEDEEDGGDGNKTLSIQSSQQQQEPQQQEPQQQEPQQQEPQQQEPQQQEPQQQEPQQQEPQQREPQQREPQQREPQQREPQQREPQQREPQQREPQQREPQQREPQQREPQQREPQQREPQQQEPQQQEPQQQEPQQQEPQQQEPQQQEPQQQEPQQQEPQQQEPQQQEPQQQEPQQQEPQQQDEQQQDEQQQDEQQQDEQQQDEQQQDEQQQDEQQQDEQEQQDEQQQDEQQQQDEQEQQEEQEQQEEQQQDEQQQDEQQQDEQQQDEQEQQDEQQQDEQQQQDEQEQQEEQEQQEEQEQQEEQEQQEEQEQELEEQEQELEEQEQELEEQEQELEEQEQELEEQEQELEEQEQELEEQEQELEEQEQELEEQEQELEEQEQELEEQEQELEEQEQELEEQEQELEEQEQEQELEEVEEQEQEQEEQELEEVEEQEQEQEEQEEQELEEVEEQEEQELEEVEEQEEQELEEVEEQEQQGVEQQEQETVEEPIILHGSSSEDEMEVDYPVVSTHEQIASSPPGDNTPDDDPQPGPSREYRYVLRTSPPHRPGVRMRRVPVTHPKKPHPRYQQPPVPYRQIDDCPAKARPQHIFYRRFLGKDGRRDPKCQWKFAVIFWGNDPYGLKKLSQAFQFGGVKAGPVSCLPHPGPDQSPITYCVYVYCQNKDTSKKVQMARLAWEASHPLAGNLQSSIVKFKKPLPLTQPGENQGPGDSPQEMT
# B2AR ag – human beta-2 adrenergic receptor agonism by FAP | P07550 | Am2.2-beta2AR cells, FAP receptor internalization, flow cytometry; reference of the scale not given here | response, % (concentration not given with the values) | 340,000 compounds, 0.43% hits;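 active = response above a set limit, near 3 SD of response in nonfluorescent compounds, cut at about 42% in these data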;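 also: stock transfer was 100 nL into about 11 µL; a reference agonist was the positive control; negative values mostly stem from fluorescent compounds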
# HNF4A DNA FP – change in binding of human HNF4 alpha to DNA; 360,000 compounds, 0.3% hits; activity change, % at 10 µM; HNF4a-FITC DNA binding, fluorescence polarization, 1 h; AID 1224865; P41235; in the data active = activity change above about 30%, passing the limit was not always enough;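 also: controls were the assay level and a saturating level of protein; the project sought stronger binding though the title names inhibitors; some compounds called inactive have numbers as strong as hits; positive values seem to mean higher polarization but the record does not say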
# UCH37 inh – inhibitors of human deubiquitinating enzyme UCH37; AID 588478; purified proteasome/UCH37, Ub-AMC cleavage fluorescence; 330,000 compounds, 0.33% hits; Q9Y5K5; inhibition, % (no concentration beside the values);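 active = mean of two replicates above 20%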;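 also: 0% = compound-free wells with enzyme and 100% = wells lacking proteasome; stock transfer was 100 nL into about 20 µL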
#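 Material: human UCH37 enzyme supplied as purified proteasome complex. Measure: % inhibition of Ub-AMC cleavage fluorescence. Medium: pH 7.4 Tris-HCl (50 mM) with ovalbumin, ATP-MgCl2, DTT. Times: 30 min preincubation with enzyme, 25 min cleavage at room temperature. Detection: AMC fluorescence intensity at 355/460 nm.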
# Vif TR-FRET – HIV-1 Vif–A3G interaction blockers – biochemical, TR-FRET, GST-Vif 1-94, biotin-A3G peptide, dose response retest, primary screen (AID 1117319); one-dose inhibition, %; IC50 in µM for titrated hits; TR-FRET GST-Vif / biotin-A3G peptide binding; higher % means a stronger effect; test concentration not given here; strong numbers were not always called active; 260,000 compounds, 0.57% hits;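 active = above the screen mean plus three standard deviations and confirmed in dose response; inconclusive = results disagree or hit not tested in dose response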;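 also: Vif residues 1-94 fused to GST binding biotinylated APOBEC3G peptide 110-148; 0% = full assay without inhibitor and 100% = GST in place of GST-Vif; retest series ran down from 100 µM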
# Ecoli growth – inhibitors of Escherichia coli growth; AID 1053175; OD600 absorbance (no concentration beside the values); 330,000 compounds, 0.21% hits; OD600, 23 h; hits give low values;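 active = OD600 absorbance below the run mean of sample wells minus 3.6 SD, in any replicate, cut at about 0.56 in these data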;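 also: stock transfer was 300 nL into about 60 µL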
# Bfl-1 A1 inh – inhibitors of the anti-apoptotic protein A1, read as caspase activation | MEF A1-2A-BIM cells, Caspase-Glo 3/7 luminescence, 3 h; percent of clofoctol response, vehicle zero | caspase activation, % (no concentration beside the values) | 330,000 compounds, 0.066% hits;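 active = over half of replicate activation scores above 10%, or exactly half above 10 with the replicate mean above 10; inconclusive = replicate mean below 10 yet half the replicates above 10; inactive = over half of replicates below 10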;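 also: wells of about 30 µL received 50 nL stock; many hits fall short of the cut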
# An asterisk follows results filed as active; ? = inconclusive; . = not tested or not shown. This is a random part of the collection; about 2.1% have a hit in one of these screens.
canonical_smiles,LANA-H2A inh,B2AR ag,HNF4A DNA FP,UCH37 inh,Vif TR-FRET,Ecoli growth,Bfl-1 A1 inh
COc1ccc(-c2nc(C)c(C(C)=O)n2O)cc1[N+](=O)[O-],0.7,4,-2.6,4.4,6%,0.67,-1.2
O=C(NCc1ccncc1)C(=O)Nc1nccs1,1.4,12,2.9,5.2,-7%,0.7,-2.2
O=C(NOC(=O)c1c(F)cccc1Cl)c1ccc(Cl)c(Cl)c1,1.2,-2,2.8,5.8,-6%,0.61,-0.9
CC(C)(C)Cc1nnc(NC(=O)c2ccco2)s1,-2.5,-5,0.2,1.9,.,0.7,0.4
O=C(CCn1c(=O)oc2ccc(Cl)cc21)N1CCN(Cc2ccccc2)CC1,3.0,-10,-0.4,2.2,2%,0.68,0.9
COCc1cc(CN2CCN(CCc3ccccc3)C(CCO)C2)ccc1OC (stereo not drawn),0.8,-1,-2.6,2.8,4%,0.63,0.0
Cc1cc(Cl)ccc1OC(C)c1nnc(N)s1 (stereo not drawn),3.8,6,-0.5,1.9,-1%,0.61,-0.4
CCOC(=O)c1csc(-c2snnc2C)n1,-1.0,-5,1.4,3.5,.,0.57,-4.2
Cc1ccc(C)c(OCC(=O)Nc2ccc(N3CCOCC3)cc2N2CCOCC2)c1,2.0,7,3.0,4.0,.,0.68,0.2
COC(=O)c1cnn(C(=O)c2ccccc2Br)c1N,11,-9,0.6,-2.1,-9%,0.66,0.1
CN(C)CCCn1c(SCc2c(Cl)cccc2Cl)nnc1-c1ccncc1,-4.1,-1,3.5,2.5,.,0.74,0.4
Cc1c(N=Cc2ccc(Br)s2)cccc1[N+](=O)[O-],-6.0,2,3.4,4.7,0%,0.66,-0.1
COc1ccc(NS(=O)(=O)c2cc(NC(=O)CCNC(=O)c3ccco3)ccc2OC)cc1,.,-4,-0.4,-0.5,-1%,0.61,.
CSC1=N/C(=C\c2ccc(C)s2)C(=O)S1,0.6,10,-0.8,2.9,-7%,0.67,-0.3
COc1ccc(C2=NOC(C)(c3nnc(-c4ccc(F)cc4)o3)C2)cc1 (stereo not drawn),5.0,-3,-1.9,1.1,6%,0.67,-0.9
CCOc1ccc(Cc2nnc(SCC(=O)Nc3ccc(C(C)=O)cc3)[nH]c2=O)cc1,-0.4,-5,2.5,2.8,.,0.7,0.1
O=C(COC(=O)C1=COCCO1)Nc1cccc(S(=O)(=O)N2CCOCC2)c1,2.2,4,-0.8,3.9,.,0.72,-0.6
Cc1ccc(C)c(N2CCN(CC3CC=CCC3)CC2)c1 (stereo not drawn),1.1,2,-1.0,-1.0,-3%,0.68,0.1
CCCCCCc1cc2cc(C(=O)Nc3ccc(OC)cc3)c(=O)oc2cc1O,-0.2,20,5.4,-0.3,-3%,0.68,0.1
CC(N=Cc1nc(-c2ccccc2)oc1O)c1ccccc1 (stereo not drawn),-5.2,-1,-0.5,6.8,2%,0.58,-0.7
OCC[C@H]1C[C@H](O)[C@@H](O)[C@]2(OCc3ccccc32)O1,-1.1,-3,0.6,-0.2,.,.,0.1
O=C(c1cn(-c2ccccc2)nc1-c1ccc(Cl)cc1)N1CCOCC1,-1.7,-13,1.1,5.2,0%,0.69,0.1
CCOc1ccc(CCNC(=O)COC(=O)CCc2cc(OC)c(OC)c(OC)c2)cc1OCC,4.4,0,1.1,6.7,.,0.7,-0.1
Cc1cc(C)c(CN2CCC(n3nccc3NC(=O)c3ccccc3Cl)CC2)cc1C,-27,0,4.0,1.9,0%,0.71,0.8
COc1cccc(/C=N/NC(=S)NCCc2ccccc2)c1OC,0.7,8,3.4,.,-9%,.,0.7
S=C1N[C@H]2CCCC[C@@H]2N1,-1.3,11,-0.1,6.1,-7%,0.65,-0.5
C[C@@H](O)[C@H]1O[C@]2(C)CCC[C@H]1O2,4.1,0,-1.3,4.9,.,.,-0.1
Cn1nc(SCC(=O)O)sc1=S,0.3,1,1.9,-0.1,6%,0.66,-0.1
O=C(c1cccc(S(=O)(=O)N2CCN(c3ccc(F)cc3)CC2)c1)N1CCCCCCC1,-4.8,-5,-0.7,1.2,-1%,0.65,2.8
CC(=O)Nc1cc(C(=O)OCC(=O)c2ccccc2)ccc1C,0.3,-4,0.8,6.5,-6%,0.66,0.0
CSc1ccc(S(=O)(=O)N2CCC(C(=O)NCCN3CCOCC3)CC2)cc1,-4.5,-6,1.5,2.9,.,0.66,-0.9
CCC(C)(C)NC(=O)C(c1cccn1C)N(C(=O)Cn1nnc2ccccc21)c1ccccc1OC (stereo not drawn),-1.7,1,2.4,2.8,?,0.7,0.3
C=CCNC(=S)N/N=C/c1ccc(C)s1,2.4,1,-0.9,.,1%,.,0.5
CCOC(=O)N1CCN(C(=O)C2CC(=O)N(c3ccc(OC)cc3)C2c2ccc(OC)cc2)CC1 (stereo not drawn),-3.4,-4,5.8,1.6,27%,0.68,1.3
O=C(N/N=C/c1cnc(N2CCCCC2)s1)c1ccc(Cl)cc1,5.9,3,-0.1,.,.,.,0.1
CNS(=O)(=O)/C=C/c1ccccc1,3.9,4,9.7,1.7,-9%,0.68,-0.8
Cc1nn(Cc2c(F)c(F)c(F)c(F)c2F)c(C)c1NC(=O)c1ccc(COc2ccccc2Cl)o1,-1.4,-2,-0.7,2.1,12%,0.63,0.5
C=CCc1c(C)nc(SC(C)C)[nH]c1=O,0.3,6,-1.9,3.0,-3%,0.71,1.0
Cc1cccc(N2CCN(S(=O)(=O)c3ccc(-c4ccc(=O)[nH]n4)o3)CC2)c1C,-0.2,1,1.0,2.4,.,0.73,1.0
CC(Sc1nc(-c2ccccc2)cc(C(F)(F)F)n1)C(=O)N1CCC(C(N)=O)CC1 (stereo not drawn),1.5,-2,-4.9,1.4,21%,0.69,0.5
O=C(Nc1c[nH]c(=O)[nH]c1=O)c1ccc2c(c1)C(=O)N(c1cccc([N+](=O)[O-])c1)C2=O,.,-5,-35,0.9,.,0.71,.
CCC(CO)NC(=O)c1cccc(S(=O)(=O)N2c3ccccc3CC2C)c1 (stereo not drawn),-2.0,29,-1.0,1.4,-2%,0.7,-0.2
CN(C)CCCNC(=S)N(CCN(C)C)Cc1cc2cc3c(cc2[nH]c1=O)OCCO3,-0.5,15,0.0,-158,.,0.69,0.1
CCCCN(C(=O)C1CC(=O)N(c2ccc3c(c2)OCCO3)C1)c1c(N)n(CC(C)C)c(=O)[nH]c1=O (stereo not drawn),.,-8,0.0,-0.1,6%,0.65,.
CC(C(=O)O)N(c1ccccc1Cl)S(C)(=O)=O (stereo not drawn),1.0,0,-3.9,0.9,.,0.58,0.3
CCOC(=O)N1CCN(CC(=O)Nc2nc3ccccc3s2)CC1,1.4,2,-6.5,3.0,.,0.64,0.5
Cc1cccc(-c2oc3ccc(-c4ccc5c(c4)OCO5)cc3c2-c2ccc(OC3CCCCO3)cc2)c1 (stereo not drawn),2.1,4,-0.5,-25,.,0.7,-1.3
Nc1nc(C2CCOCC2)cs1,11,1,0.9,4.4,1%,0.67,0.5
O=C(NC(Cc1ccccc1)C(=O)O)/C(=C/c1ccccc1)NC(=O)c1cccc(Br)c1 (stereo not drawn),0.7,-6,-1.1,31*,-3%,.,0.8
CC(=O)Nc1ccc2nc(NC(=O)COc3ccccc3C)sc2c1,6.6,-2,3.8,2.3,17%,0.76,-0.5
Nc1cc(S(=O)(=O)Nc2ccccc2Cl)ccc1N1CCCC1,-7.0,-10,3.7,4.7,-6%,0.77,0.6
CC(C#N)(NC(=O)CN1CCN(S(=O)(=O)c2cc(C(F)(F)F)ccc2Cl)CC1)C1CC1 (stereo not drawn),.,-10,-1.6,1.4,4%,0.68,.
CC(=O)c1ccc2c(c1)CC(C)C(=O)N2C (stereo not drawn),-4.8,1,-5.2,-1.4,-3%,0.65,1.5
O=C(Cn1c(COc2ccccc2)nc2ccccc21)Nc1cc(Cl)cc(Cl)c1,-1.7,3,0.6,5.5,-7%,0.73,0.7
Cc1ncccc1C(=O)N1CCCC(CCC(=O)N2CCN(c3ccccn3)CC2)C1 (stereo not drawn),-3.8,8,0.2,-2.7,.,0.71,0.1
CCn1c(NCc2ccc(OC)cc2)nc2ccccc21,-7.6,-4,-6.7,-0.9,.,0.66,1.2
COc1ccc(N(C)S(=O)(=O)c2cccc(C(=O)NCc3ccc(C)cc3)c2)cc1,1.4,-2,1.3,3.0,.,0.68,0.5
c1ccn2c(CNc3ncnc4sccc34)nnc2c1,-3.3,5,2.0,-1.9,?,0.68,-0.4
CCCC(=O)NCCCCNC(=O)CCC,-3.9,-6,-0.1,-1.2,4%,0.7,0.2
O=C(O)/C=C/c1cn(-c2ccccc2)nc1-c1cccs1,-3.7,0,-1.9,-29,7%,0.69,0.1

# Random excerpt: 2 entries already listed, in no set order.
canonical_smiles,LANA-H2A inh,B2AR ag,HNF4A DNA FP,UCH37 inh,Vif TR-FRET,Ecoli growth,Bfl-1 A1 inh
CC(C#N)(NC(=O)CN1CCN(S(=O)(=O)c2cc(C(F)(F)F)ccc2Cl)CC1)C1CC1 (stereo not drawn),.,-10,-1.6,1.4,4%,0.68,.
CCn1c(NCc2ccc(OC)cc2)nc2ccccc21,-7.6,-4,-6.7,-0.9,.,0.66,1.2

# Later entries:
canonical_smiles,LANA-H2A inh,B2AR ag,HNF4A DNA FP,UCH37 inh,Vif TR-FRET,Ecoli growth,Bfl-1 A1 inh
Cc1ccc(S(=O)(=O)Nc2cccc(C(=O)NCC3CCCO3)c2)cc1F (stereo not drawn),0.2,-20,-0.8,4.7,-4%,0.67,-0.9
NCCc1nnc(SCc2c(Cl)cccc2Cl)o1,9.5,2,1.3,1.0,22%,0.63,0.4
O=C(O)c1ccc(CNCc2ccccc2Cl)cc1,2.1,1,-0.8,4.4,-4%,0.74,-5.6
O=C(C=Cc1ccco1)c1ccc2ccccc2c1,.,-1,-1.6,.,22%,.,.
Cc1ccc(C(C(=O)NC2CCCC2)N(C(=O)Cc2cccs2)c2ccc3c(c2)OCCO3)cc1 (stereo not drawn),-1.0,-5,-1.1,3.9,-3%,0.64,0.5
Cn1c(-c2ccc(C(C)(C)C)cc2)n[nH]c1=S,2.2,1,-2.8,-0.1,-4%,0.7,-4.1
CCNc1nc(NCC)n2c(SCC(=O)Nc3ccccc3C(F)(F)F)nnc2n1,4.3,4,-1.7,1.7,17%,0.68,0.7
O=C(CN1CCN(c2ccc(F)cc2)CC1)N1CCOCC1,0.9,-3,-4.8,-0.1,-3%,0.7,-1.0
CCOc1ccccc1/C=C(/C#N)C(N)=O,-6.0,-2,1.5,.,16%,.,0.8
Cc1cc(Cl)c(S(=O)(=O)N2CC(C)OC(C)C2)cc1OCC(N)=O (stereo not drawn),-2.6,2,3.1,3.3,4%,0.74,-0.4
CS(=O)(=O)N(CCc1ccccc1)CC(=O)N1CCCC1,0.4,-2,1.8,1.7,?,0.67,0.1
C/C(=N\NC(=O)Cc1ccc(O)cc1)c1cccnc1,-3.7,-18,5.6,.,5%,.,-0.1
NC(=O)COC(=O)c1ccccc1OCc1ccc(Cl)cc1,1.2,3,1.0,2.3,-8%,0.68,-0.7
COc1ccc(N2CCN(C(=O)c3ccc4c(=O)n(CC5CCCO5)c(=O)[nH]c4c3)CC2)cc1 (stereo not drawn),5.0,1,-3.5,1.2,31%,0.71,0.6
COc1ccc(CCNC(=O)Cn2c(=O)oc3cc(Cl)ccc32)cc1OC,-5.5,3,-4.2,2.9,19%,0.72,0.3
